eIF4H inh: inhibitors of RNA binding by human eIF4H; 290,000 tested, 0.94% active; inhibition, % at 35 µM; eIF4H fluorescence polarization binding assay; Q15056;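 active = 50% or more with normal probe brightness, or confirmed in later tests; inconclusive = above 50% with abnormal brightness, or retests that disagree; inactive = below 50% or failed in later tests; about a fifth of its hits are not listed in these tables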;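 also: calls also rest on retests at 20 µM and on dose response follow-up; 0% = protein and probe with vehicle and 100% = probe without protein; strong numbers were not always called active; many hits fall short of the cut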
CSC inhib: cancer stem cell inhibition; AID 2717; 300,000 tested, 1.1% active; cancer stem cell-like cells viability, luminescence; inhibition, % at 7.5 µM;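 active = mean at 75% or more and at least half the replicates too; inconclusive = mean and replicates disagree; tested in HMLE shEcad cells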;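 also: 0% = median of negative and 100% = median of positive control wells; the first replicate is given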
MT1-MMP act inh: blocks activation of human MT1-MMP; GFP/RFP ratio change, % at 20 µM; 360,000 tested, 0.061% active; AID 651647; P50281; HT1080 RFP-PRO-GFP cells, GFP/RFP ratio fluorescence, overnight; percent of plate control window, DMSO zero;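 active = GFP/RFP ratio change of at least 30% with cell ATP level not reduced by more than half and red fluorescence within 50% of control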; also: strong numbers were not always called active
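Assay system: HT1080 RFP-PRO-GFP cells | Dosing: 20 µM single dose, 1% DMSO | Incubation: Cells overnight before dosing, compound overnight, 37 °C, 5% CO2 | Evaluation: GFP/RFP fluorescence ratio | Control set: DMSO-only wells and HT1080 RFP-L50D-GFP cell wells as references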
HIV Env fusion: HIV envelope-mediated fusion inhibition. inhibition, % at 12.3 µM. AID 651610. 360,000 tested, 1.1% active. HeLa-JRFL Env/CEM21 cell fusion, luciferase;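 active = mean replicate inhibition score of at least 50 and every replicate individually at or above 50; inconclusive = only one of the two criteria met; inactive = mean below 50 and not all replicates reaching 50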;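 also: 0% = plate neutral controls and 100% = maraviroc near 300 nM; one replicate is shown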
PABP polyA inh: PABP-poly(A) binding inhibition; P11940; PABP-poly(A) RNA binding, fluorescence polarization; 290,000 tested, 1% active; inhibition, % at 35 µM;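 active = 50% or more with normal probe brightness, or confirmed in later tests; inconclusive = above 50% with abnormal brightness, or retests that disagree; inactive = below 50% or failed in later tests; about a fifth of its hits are not listed in these tables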;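 also: calls also rest on retests at 20 µM and on dose response follow-up; controls were probe without protein and protein plus probe with vehicle; some compounds called inactive have numbers as strong as hits; many hits fall short of the cut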
Target sequence (P11940 whole entry, looked up): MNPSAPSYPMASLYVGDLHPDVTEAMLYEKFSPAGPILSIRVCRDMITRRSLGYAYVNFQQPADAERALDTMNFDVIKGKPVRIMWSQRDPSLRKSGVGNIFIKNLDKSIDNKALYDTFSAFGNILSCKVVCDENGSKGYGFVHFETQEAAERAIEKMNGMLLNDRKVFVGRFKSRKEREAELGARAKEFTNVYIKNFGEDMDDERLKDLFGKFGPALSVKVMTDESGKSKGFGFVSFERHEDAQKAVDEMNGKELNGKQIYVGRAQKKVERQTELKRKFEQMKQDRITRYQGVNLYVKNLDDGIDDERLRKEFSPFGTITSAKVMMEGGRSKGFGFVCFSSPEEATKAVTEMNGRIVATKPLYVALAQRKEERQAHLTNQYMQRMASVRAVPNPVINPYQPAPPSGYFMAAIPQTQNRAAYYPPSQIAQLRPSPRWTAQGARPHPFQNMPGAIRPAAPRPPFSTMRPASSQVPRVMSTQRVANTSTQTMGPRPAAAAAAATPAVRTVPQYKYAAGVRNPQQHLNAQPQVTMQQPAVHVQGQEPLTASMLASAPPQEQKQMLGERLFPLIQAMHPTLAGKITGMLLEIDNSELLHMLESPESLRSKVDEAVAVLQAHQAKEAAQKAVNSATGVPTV
UUG fidelity: alters start codon recognition fidelity in yeast; S. cerevisiae UUG-firefly luciferase reporter, luminescence/redox ratio; activity score, % at 18.7 µM; 350,000 tested, 0.13% active; AID 602363;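 active = replicate mean at a twofold rise or more, about +100% in these data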;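 also: firefly luciferase made from a UUG start codon reports start codon fidelity; reporter light over untreated wells divided by growth signal over untreated wells; some hits fall short of that in this replicate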
Rce1 inh: yeast Ras-converting enzyme inhibition; yeast membranes, quenched prenylated peptide cleavage fluorescence; calls only; 290,000 tested, 0.27% active;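 active = fall in fluorescence gain of 50% or more versus controls, with final raw signal at or below 3038400; inconclusive = same 50% fall but final raw signal above 3038400; inactive = fall in fluorescence gain under 50%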;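 also: plate controls were neutral control wells for no effect and wells lacking membranes for full effect; tested at 10 µM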
eIF4H inh retest: recorded beside eIF4H inh, whose call it bears; inhibition, %; compound at 20 µM; confirmation average;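 mean of two retest wells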
PABP polyA inh retest: also measured in PABP polyA inh; calls as there; inhibition, %; compound at 20 µM; confirmation repeats;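 mean of two retest wells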
MT1-MMP act inh RFP: also measured in MT1-MMP act inh; calls as there; RFP signal change, %; measured here: RFP expression control read;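 0 = vehicle wells; hits needed this value within 50% of zero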
The depositor's hits bear a star; i = inactive; ? = inconclusive; . = no result given.

SMILES	eIF4H inh	CSC inhib	MT1-MMP act inh	MT1-MMP act inh RFP	HIV Env fusion	PABP polyA inh	UUG fidelity	Rce1 inh	others
CC(C)[C@H](NC(=O)c1ccc(Cl)cc1)C(=O)OCC(=O)N1CCN(c2ccccc2)CC1	.	-14	3	-10	.	.	-14	.
Cc1cc(C)cc(N2CCCn3c2nc2c3c(=O)n(CCN3CCOCC3)c(=O)n2C)c1	1	-3	8	7	.	3	6	.
O=C(CN1C(=O)NC2(CCCCC2)C1=O)Oc1ccc2ccc(=O)oc2c1	.	14	-2	0	.	.	-10	.
CC(C)NC(=O)CC1Nc2c3ccccc3nc(=S)n2C1=O (stereo unspecified)	8	-11	6	4	-82	4	-9	i
COc1cc2nc(NC(=O)c3ccc(Cl)cc3)[nH]c(=O)c2cc1OC	1	2	5	-5	.	26	-4	i
CCCCC(OC(=O)c1cc2occc2n1C)C(=O)NCC1CCCO1 (stereo unspecified)	3	-17	6	2	.	6	-15	i
CCOc1ccc(Br)cc1CSC(=N)N	-14	1	-1	-10	19	0	.	i
CCC1(c2ccc(Cl)cc2)NC(=O)N(CC(=O)NC2(C#N)CCCCC2)C1=O (stereo unspecified)	.	-19	-3	-1	24	.	-5	.
CCOc1ccc(S(=O)(=O)NCc2ccccn2)c(C)c1C	8	-12	-1	-3	-2	9	-8	i
NNc1nc2sc3c(c2c(=O)n1Cc1ccccc1)CCC3	64*	17	3	3	18	15*	-26	i	eIF4H inh retest=76*;PABP polyA inh retest=68*
Cc1cc(C)cc(N(C(=O)c2cc3ccccc3oc2=O)C2C=CS(=O)(=O)C2)c1 (stereo unspecified)	-13	1	-4	-4	7	0	.	i
O=C(N/N=C/c1cn(CCOc2ccccc2)c2ccccc12)c1ccncc1	-1	0	2	4	-3	4	-26	i
COc1cc2nc(CSc3ncn[nH]3)[nH]c(=O)c2cc1OC	-3	6	0	1	-10	-4	.	i
Cc1ccc(/C=C/c2ccc(=O)n(Cc3ccc(F)cc3)n2)cc1	0	-1	0	-6	23	20	.	.
COc1ccc(NC(=O)Cn2c(-c3ccccc3)cc(C(C)=O)c2C)c(OC)c1	4	2	-2	4	7	-9	.	.
COc1ccc(NC(=O)CSC2=C(C#N)C(c3ccco3)C(C(=O)Nc3nc4ccccc4s3)=C(C)N2)cc1 (stereo unspecified)	.	11	1	-6	.	.	10	i
O=C(NCCN1CCOCC1)c1cc2ccccc2[nH]1	-1	3	2	3	.	-9	-21	i
CCOC(=O)c1sc(NC(=O)CSC(=S)N2CCN(C)CC2)nc1C	-6	2	-6	0	30	-5	6	i
O=C(NCc1nnc(SCC(=O)N2CCOCC2)o1)c1ccccc1F	0	-2	11	-6	3	14	.	i
CCCCc1ccc(S(=O)(=O)NCCCN2CCCC2=O)cc1	-2	-13	4	-13	3	-10	-1	i
Cc1ccc(Cl)cc1N1CCN(C(=O)CCS(=O)(=O)c2cccc3nonc23)CC1	2	5	5	-7	31	0	-1	i
CCOC(=O)C1CCN(C(=O)Cn2nc(C)n3nc(-c4ccc(OC)cc4)cc3c2=O)CC1	-3	-10	-2	-3	5	2	-8	i
O=C(NNS(=O)(=O)c1ccc(Cl)cc1)c1cccs1	-4	-7	1	-1	8	7	.	i
CC(=O)NCCc1nc2cc(NC(=O)c3ccccc3)ccc2n1C	8	-18	-2	-1	-8	0	-26	i
O=C(COc1ccccc1[N+](=O)[O-])Nc1cccnc1	12	57	0	2	-69	-7	-17	i
S=C(NCCc1ccccc1)N1CCCCC1	-3	-9	5	4	3	14	.	i
O=C(CSc1nnc(-c2ccccc2)o1)N1CCCCC1	-20	-5	4	3	-20	-1	-18	i
O=C(NN=Cc1ccc(OC(F)F)cc1)c1ccc(NS(=O)(=O)c2cccs2)cc1	.	1	-1	7	-13	.	-15	.
COc1cc(C(=O)NCCC(=O)N2CCN(C)CC2)cc(OC)c1OC	-3	-16	-3	3	-1	2	-18	i
Cc1[nH]n(-c2ccccc2)c(=O)c1N=Nc1ccc(Cl)cc1	8	-3	5	8	1	3	-17	i
COCCNC(=O)CN(C(=O)CCC(=O)Nc1cc(C)on1)c1cccc(C)c1C	0	-10	-2	4	-135	5	7	i
CN(CC1CCOCC1)C(=O)CC1C(=O)NCCN1CC1CCCCC1 (stereo unspecified)	9	-2	7	3	16	2	-16	i
C[N+](C)=C1SCC(C)(/C=N/O)S1 (stereo unspecified)	4	-3	1	1	0	-8	.	i
O=C(NCCNC1CCC(c2ccccc2)CC1)c1cccs1 (stereo unspecified)	7	17	3	7	1	5	.	i
CC1CN(C(=O)CCC(=O)N2CCCCC2)c2ccccc2O1 (stereo unspecified)	-4	-1	-3	1	3	-1	-10	i
CN(C)c1ccc(/C=C2\N=C(C(C)(C)C)OC2=O)cc1	?	0	-3	0	-2	?	-13	i
CCN1C(=O)CSC1=Nc1ccc(Cl)c(Cl)c1	-8	13	-1	-10	0	0	17	i
Cc1c(CCO)c(=O)n(-c2ccccc2)n1S(=O)(=O)c1ccc(F)cc1	-2	-22	-2	2	-19	1	-1	i
CN(CC(=O)Nc1ccc(C(N)=O)cc1)S(=O)(=O)c1ccc2c(c1)OCCO2	.	-2	1	-6	-9	.	-20	.
Cc1ccc(S(=O)(=O)NCCC(=O)NCCSc2ccc(Br)cc2)cc1	-4	-3	1	1	-27	8	-7	i

Pulled one by one from the list above:
SMILES	eIF4H inh	CSC inhib	MT1-MMP act inh	MT1-MMP act inh RFP	HIV Env fusion	PABP polyA inh	UUG fidelity	Rce1 inh	others
CN(CC1CCOCC1)C(=O)CC1C(=O)NCCN1CC1CCCCC1 (stereo unspecified)	9	-2	7	3	16	2	-16	i
O=C(CSc1nnc(-c2ccccc2)o1)N1CCCCC1	-20	-5	4	3	-20	-1	-18	i
CC1CN(C(=O)CCC(=O)N2CCCCC2)c2ccccc2O1 (stereo unspecified)	-4	-1	-3	1	3	-1	-10	i
O=C(NN=Cc1ccc(OC(F)F)cc1)c1ccc(NS(=O)(=O)c2cccs2)cc1	.	1	-1	7	-13	.	-15	.
C[N+](C)=C1SCC(C)(/C=N/O)S1 (stereo unspecified)	4	-3	1	1	0	-8	.	i
CN(CC(=O)Nc1ccc(C(N)=O)cc1)S(=O)(=O)c1ccc2c(c1)OCCO2	.	-2	1	-6	-9	.	-20	.

The listing continues:
SMILES	eIF4H inh	CSC inhib	MT1-MMP act inh	MT1-MMP act inh RFP	HIV Env fusion	PABP polyA inh	UUG fidelity	Rce1 inh	others
COc1ccc(/C=C/C(=O)c2ccncc2)c2ccccc12	4	176*	-9	-17	40	-3	.	i
CCOC(=O)C1CCN(CC(=O)Nc2cc(C)nn2-c2nc3ccccc3s2)CC1	-12	.	-10	-6	-3	-2	-14	i
O=C(O)C(CCc1ccccc1)(Cc1ccccc1)C(=O)O	.	.	0	1	3	.	-9	.
CC(NS(=O)(=O)c1ccccc1)c1n[nH]c(=S)n1-c1ccccc1 (stereo unspecified)	-8	-18	1	-3	-150	-4	.	i
O=C(Nc1ccc(Oc2cccnc2)cc1)C1CCCCN1Cc1ccc(CO)o1 (stereo unspecified)	1	-6	1	3	.	5	-15	i
C=CCNC(=O)NC(=O)COC(=O)COc1ccc(Br)cc1F	2	-7	-5	0	16	7	-21	.
Cc1nnc(SCCN2CCOCC2)n1C	22	-9	2	4	12	0	-10	i
O=S(=O)(c1ccccc1Cl)N1CCC(O)(c2ccc3c(c2)OCO3)CC1	-2	-2	5	-1	.	-1	-4	i
COC(=O)c1ccc(NC(=S)Nc2ccccn2)cc1	8	-10	-2	-9	.	-1	-25	i
CCOC(=O)C1(C)CCN1C(=O)c1cc(C)n(C(C)(C)C)n1 (stereo unspecified)	.	.	1	5	-33	.	-11	.
OCCC1CN(Cc2ccon2)CCN1Cc1ccc(F)c(F)c1 (stereo unspecified)	-1	-19	-5	-3	15	4	-12	i
CN1C(=O)c2ccc(NC(=S)NC(=O)C(C)(C)C)cc2C1=O	-10	-14	-1	-5	-13	-1	-15	i
Cc1ccc(CN(Cc2ccco2)S(=O)(=O)c2ccc(S(=O)(=O)NCC3CCCO3)cc2)cc1 (stereo unspecified)	-10	24	-11	-13	-2	?	.	i
Cc1ccc(Nc2nnc(SCC(=O)c3cc4ccccc4o3)s2)cc1C	6	3	-1	5	-277	-10	-17	i
Cc1cc(C)cc(OCC(=O)NNC(=O)CCN2C(=O)c3ccccc3C2=O)c1	2.3*	-1	-2	2	3	116*	.	i	eIF4H inh retest=87*;PABP polyA inh retest=74*
CCC(=O)Nc1ccc(Nc2nc(C)c([N+](=O)[O-])c(Nc3ccc(NC(=O)CC)cc3)n2)cc1	2	9	6	-4	.	23	.	i
O=C(O)c1ccc2c(c1Nc1ccccc1)C(=O)c1ccccc1C2=O	10	5	2	0	-4	36	5	i
O=C(C1CCC(=O)N(C2CCCC2)C1)N1CCN(c2ccc(Cl)cc2)CC1 (stereo unspecified)	-4	-11	1	-3	2	8	.	i
CN(C(=O)COc1ccc(S(=O)(=O)N2CCOCC2)cc1[N+](=O)[O-])C1CCS(=O)(=O)C1 (stereo unspecified)	0	-8	-5	1	11	7	-10	i
CC(C)NC(=O)C1(C)CCCN1C(=O)c1ccc2c(c1)C(C)(C)CCC2(C)C (stereo unspecified)	.	.	-3	-14	14	.	6	.

Among those listed so far, these have bromine:
SMILES	eIF4H inh	CSC inhib	MT1-MMP act inh	MT1-MMP act inh RFP	HIV Env fusion	PABP polyA inh	UUG fidelity	Rce1 inh	others
CCOc1ccc(Br)cc1CSC(=N)N	-14	1	-1	-10	19	0	.	i
Cc1ccc(S(=O)(=O)NCCC(=O)NCCSc2ccc(Br)cc2)cc1	-4	-3	1	1	-27	8	-7	i
C=CCNC(=O)NC(=O)COC(=O)COc1ccc(Br)cc1F	2	-7	-5	0	16	7	-21	.

The list continues:
SMILES	eIF4H inh	CSC inhib	MT1-MMP act inh	MT1-MMP act inh RFP	HIV Env fusion	PABP polyA inh	UUG fidelity	Rce1 inh	others
O=C(Nc1ccccc1F)c1ccc(S(=O)(=O)N2CCCCCC2)cc1	.	14	3	-3	.	.	0	.
Cc1ccccc1CNS(=O)(=O)c1c(C)[nH]c(C)c1C(=O)N1CCCCC1	-8	-1	1	-3	24	2	-18	i
Cc1ccc(N(C(=O)CCC(=O)Nc2cc(C)on2)C(C(=O)NC2CCCC2)c2ccccc2)cc1 (stereo unspecified)	1	13	0	2	7	-4	.	i
Cc1cc(C)n(-c2ccc(NC(=O)C3CCN(Cc4cc(C)c(C)o4)CC3)cc2)n1	35	-4	-4	-3	10	26	-7	i
CC(C)O/C(=N\S(=O)(=O)c1ccc(Cl)cc1)c1ccccc1	-4	.	-3	5	17	6	-17	i
COc1cc(C2c3c(n[nH]c3C)C(=O)N2c2ccc(Br)cc2)ccc1O (stereo unspecified)	-6	-11	-3	4	-4	-4	3	i
CCOC(=O)C(c1ccccc1)C(Nc1ccccc1)c1ccccn1 (stereo unspecified)	-12	-3	-4	0	14	-7	.	i

A run of entries from further up, as a working copy:
SMILES	eIF4H inh	CSC inhib	MT1-MMP act inh	MT1-MMP act inh RFP	HIV Env fusion	PABP polyA inh	UUG fidelity	Rce1 inh	others
O=C(Nc1ccccc1F)c1ccc(S(=O)(=O)N2CCCCCC2)cc1	.	14	3	-3	.	.	0	.
Cc1ccccc1CNS(=O)(=O)c1c(C)[nH]c(C)c1C(=O)N1CCCCC1	-8	-1	1	-3	24	2	-18	i
Cc1ccc(N(C(=O)CCC(=O)Nc2cc(C)on2)C(C(=O)NC2CCCC2)c2ccccc2)cc1 (stereo unspecified)	1	13	0	2	7	-4	.	i

Source: PubChem (several laboratories)
